High-throughput results: PubChem, Broad Institute
AF4-AF9 inh: blocks AF4 peptide binding to human AF9; P42568; AlphaScreen, biotin-AF4 peptide binding to FLAG-AF9; inhibition, % at 10 µM; 350,000 compounds, 0.47% hits; AID 651704;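 active = every replicate reaching a set inhibition limit, whatever the replicate mean, cut at about 25% in these data; inconclusive = mean inhibition reaches that limit but some replicates miss it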;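 note: 0% = plate neutral control median and 100% = total signal loss; the record names both 10 and 1 µM as test concentration; the first replicate is given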
Target sequence (P42568 whole entry, looked up): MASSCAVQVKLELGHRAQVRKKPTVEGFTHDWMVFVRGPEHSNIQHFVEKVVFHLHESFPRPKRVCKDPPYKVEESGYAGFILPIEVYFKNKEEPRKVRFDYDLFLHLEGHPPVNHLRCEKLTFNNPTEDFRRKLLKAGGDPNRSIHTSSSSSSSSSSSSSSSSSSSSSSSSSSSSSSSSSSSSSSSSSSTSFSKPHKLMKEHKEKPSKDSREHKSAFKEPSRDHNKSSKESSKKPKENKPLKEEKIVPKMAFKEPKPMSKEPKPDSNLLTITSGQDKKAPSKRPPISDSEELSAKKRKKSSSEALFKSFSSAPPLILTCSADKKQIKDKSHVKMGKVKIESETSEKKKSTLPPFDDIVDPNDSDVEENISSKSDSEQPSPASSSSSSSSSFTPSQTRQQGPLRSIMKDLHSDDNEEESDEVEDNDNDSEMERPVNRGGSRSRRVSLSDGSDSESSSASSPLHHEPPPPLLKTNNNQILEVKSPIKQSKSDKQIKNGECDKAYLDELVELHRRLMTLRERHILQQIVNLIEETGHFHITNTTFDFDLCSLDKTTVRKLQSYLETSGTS
Beta cell apopt: blocks beta cell apoptosis | INS-1E cytokine-induced death, ATP luminescence, 48 h; percent of positive-control rescue, neutral wells zero | protection from apoptosis, % (no concentration beside the values) | 300,000 compounds, 0.8% hits | AID 435005;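 active = all replicates at 75% or more, or half of them and the mean; inconclusive = half reach 75% but not the mean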;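 note: 0% = cytokine-treated negative control wells and 100% = positive control rescue; higher means more ATP so stronger rescue from cytokine killing; wells of about 40 µL received 100 nL stock; the first replicate is given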
Ecoli rRNA inh: selective bacterial rRNA inhibition in E. coli | E. coli WT GFP vs humanized-ribosome RFP mutants, fluorescence, 24 h; stronger effect = lower value; DMSO median 0, no signal -100 | GFP signal change (wild-type ribosome), % (concentration not given with the values) | 350,000 compounds, 1.6% hits | AID 720706;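 active = significant combined selectivity score with lowered wild-type GFP, culture density cut under 30%, mutant RFP and density less affected; inactive = any of these conditions unmet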; note: one replicate is shown; some compounds called inactive have numbers as strong as hits
RanGTP-Impb inh: inhibitors of RanGTP-importin-beta interaction, primary screen, biochemical, FRET, CFP-Ran, YFP-importin-beta, homogeneous | 300,000 compounds, 1.1% hits | inhibition, % (test concentration not listed) | cell-free CFP-Ran/YFP-importin-beta FRET ratio;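 active = most replicates above 15%; inconclusive = exactly half above 15%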;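 note: 0% = DMSO wells and 100% = Ran loaded with GDP instead of GTP; wells of about 40 µL received 100 nL stock; the first replicate is given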
T cruzi inh: T. cruzi replication inhibition | T. cruzi beta-gal in NIH3T3, luminescence, 90 h | inhibition, % (no concentration beside the values) | 300,000 compounds, 1.4% hits;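 active = mean inhibition across valid replicates above about 55%, limit read from the data; inconclusive = mean below that limit but half or more replicates reach it; inactive = mean below it, under half of replicates reach it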;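 note: signal also drops with host cell toxicity which is not excluded here; 0% = plate median of DMSO wells and 100% = zero luminescence signal; higher percent means less beta-gal luminescence so fewer parasites; stock transfer was 50 nL into about 50 µL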
FGF22 binding: binders of recombinant human FGF22 by thermal shift | calls only at 9.99 µM | AID 651658 | 340,000 compounds, 1.5% hits | SYPRO orange fluorescence; percent of sucrose octasulfate shift, DMSO zero | Q9HCT0;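 active = melting point raised past a set limit in the mean and every replicate; inconclusive = no clear call; three in four hits are not shown here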
Target sequence (Q9HCT0 whole entry, looked up): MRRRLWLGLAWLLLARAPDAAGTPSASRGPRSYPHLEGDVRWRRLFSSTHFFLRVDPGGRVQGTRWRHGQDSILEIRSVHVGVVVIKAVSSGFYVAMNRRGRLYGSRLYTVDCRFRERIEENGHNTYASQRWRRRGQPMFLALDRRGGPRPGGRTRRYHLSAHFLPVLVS
Calb FLC: C. albicans growth modulation with fluconazole | C. albicans CaCi-2 (fluconazole-resistant clinical isolate) + fluconazole, Alamar Blue growth, 48 h | growth inhibition, % (concentration not given with the values) | 300,000 compounds, 0.57% hits;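 active = most replicates above 75%; inconclusive = exactly half above 75%; inactive = most below 75%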;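 note: all wells also contain fluconazole at 8 µg/ml as a sub-toxic cotreatment; 0% = median of DMSO wells and 100% = median of geldanamycin control wells; wells of about 8 µL received 7.5 nL stock; the first replicate is given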
ALR H2O2 inh: inhibitors of human sulfhydryl oxidase ALR; P55789; purified ALR, DTT oxidation, H2O2 HRP-luminol luminescence; inhibition, % (concentration not given with the values); 290,000 compounds, 3.8% hits;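 active = mean and each replicate at 75% or more; inconclusive = only one of the two met; inactive = neither met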;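 note: stock transfer was 7.5 nL into about 7.5 µL; 0% = neutral wells and 100% = wells with inactivated enzyme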
Target sequence (P55789 whole entry, looked up): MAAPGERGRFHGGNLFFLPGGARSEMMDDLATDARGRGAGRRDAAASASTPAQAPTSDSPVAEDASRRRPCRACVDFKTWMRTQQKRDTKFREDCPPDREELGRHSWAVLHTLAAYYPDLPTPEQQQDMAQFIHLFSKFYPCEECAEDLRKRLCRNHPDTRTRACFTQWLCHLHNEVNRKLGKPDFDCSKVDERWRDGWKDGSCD
Ecoli rRNA inh OD600: further read-out of Ecoli rRNA inh, marked with its call; OD600 change, %; measured here: OD600 growth;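 optical density of the mix in the first replicate; 0 = DMSO median and -100 = no signal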
Ecoli rRNA inh RFP: second read-out of Ecoli rRNA inh, no call of its own (marks repeat the call); RFP signal change, %; measured here: RFP humanized mutant strains;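 first replicate; 0 = DMSO median and -100 = no signal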
* hit, by the source's call; i = inactive; ? = inconclusive; / = not tested or not shown; & = joins results of further samples.

molecule	AF4-AF9 inh	Beta cell apopt	Ecoli rRNA inh	Ecoli rRNA inh OD600	Ecoli rRNA inh RFP	RanGTP-Impb inh	T cruzi inh	FGF22 binding	Calb FLC	ALR H2O2 inh
CC(=O)c1cccc(N(C(=O)c2ccco2)C(C(=O)NC2CCCC2)c2cccs2)c1 (centres undefined)	1.6	-6	-3	-3	1.4	-0.3	19	i	1	/
CCc1nnc(NC(=O)c2ccc(S(=O)(=O)NC3CCCCC3)cc2)s1	-30	0	-7	-4	-1.1	1.9	24	i	-7	5
COCCn1c(SCCCc2ccccc2)nc2c1c(=O)[nH]c(=O)n2C	/	2	/	/	/	-4.5	12	/	-10	0
CCOC(=O)C(C)Oc1ccc2c(C)cc(=O)oc2c1C(C)=O (centres undefined)	/	-5	/	/	/	5.7	-1	/	19	-2
O=C(COC(=O)/C=C/c1cccs1)Nc1cccc(S(=O)(=O)N2CCOCC2)c1	5.8	-2	-16	-10	-0.7	1.6	-9	i	5	/
CCOC(=O)CSc1nnc(-c2ccc(OC)cc2OC)o1	2.4	-2	5	1	1.7	3.5	-14	i	14	0
O=C(Nc1ncc2c(n1)-c1ccccc1OC2)c1ccc(Cl)cc1Cl	/	6	/	/	/	2.1	-22	/	1	-3
CCc1cc2c(cc(C(=O)O)n2C)s1	/	-8	/	/	/	4.1	-8	/	-3	54
CC(C)n1c(SCC(=O)Nc2ccc3c(c2)OCO3)nc2c1c(=O)n(C)c(=O)n2C	/	3	/	/	/	5.7	-6	/	10	-7
Cc1nc(C#N)c(N/N=C/c2c(F)cccc2Cl)o1	1.0	/	-33	-30	-9.6	1.2	6	i	16	98*

More records.
molecule	AF4-AF9 inh	Beta cell apopt	Ecoli rRNA inh	Ecoli rRNA inh OD600	Ecoli rRNA inh RFP	RanGTP-Impb inh	T cruzi inh	FGF22 binding	Calb FLC	ALR H2O2 inh
COc1ccc(C(=O)NCC(=O)n2nc(C)cc2C)cc1OC	/	-2	/	/	/	-5.6	-13	/	4	-11
Cc1ccc(Cn2c(C(C)Nc3nc(-c4ccc(Cl)c([N+](=O)[O-])c4)cs3)nc3cc(C(F)(F)F)ccc32)cc1 (centres undefined)	/	3	18	8	5.6	-0.5	19	i	-6	/
C[C@H](CO)N1C[C@H](C)[C@@H](CN(C)Cc2ccncc2)Oc2c(NC(=O)CCCCCC(=O)Nc3ccccc3N)cccc2C1=O	-3.5&-2.9	-3	-2&8	3&15	-0.2&-2.0	/	/	i	/	-3
COCCNC(=O)Cn1cc(/C=N/NC(=O)c2ccc(Oc3ccc(O)cc3)cc2)c2ccccc21	1.6	-10	-14	-9	-0.2	3.4	-13	/	-14	33
CCCc1ncc(C(=O)c2ccc(OC)cc2)n1C	/	-9	/	/	/	2.9	11	/	-29	-1
COC(C(=O)Nc1ccc(S(=O)(=O)Nc2ccc(C)c(C)c2)cc1)c1ccccc1 (centres undefined)	/	4	/	/	/	3.7	5	/	-5	2
NC(=O)C1(N2CCCCC2)CCN(Cc2ccc(Br)cc2)CC1	0.1	12	4	1	-0.4	-2.1	0	i	-31	/
CC1CCN(C(=O)CN(c2cccc(F)c2)S(C)(=O)=O)CC1	-0.1	0	11	13	2.2	0.2	0	i	4	-21
Cc1nc2ccc(NS(=O)(=O)c3c(F)cc(F)cc3Br)cc2s1	1.5	-14	-34	-63	-15	/	/	i	/	-4
C=CCn1c(CC(=O)Nc2ccc(C)cc2C)nnc1SCC(=O)N1CCOCC1	-0.7	4	0	1	1.9	-3.6	-7	i	-20	-2

A different layout for 5 compounds above:
Results follow in this order: AF4-AF9 inh	Beta cell apopt	Ecoli rRNA inh	Ecoli rRNA inh OD600	Ecoli rRNA inh RFP	RanGTP-Impb inh	T cruzi inh	FGF22 binding	Calb FLC	ALR H2O2 inh
> COCCNC(=O)Cn1cc(/C=N/NC(=O)c2ccc(Oc3ccc(O)cc3)cc2)c2ccccc21
    1.6	-10	-14	-9	-0.2	3.4	-13	/	-14	33
> CCCc1ncc(C(=O)c2ccc(OC)cc2)n1C
    /	-9	/	/	/	2.9	11	/	-29	-1
> COC(C(=O)Nc1ccc(S(=O)(=O)Nc2ccc(C)c(C)c2)cc1)c1ccccc1 (centres undefined)
    /	4	/	/	/	3.7	5	/	-5	2
> NC(=O)C1(N2CCCCC2)CCN(Cc2ccc(Br)cc2)CC1
    0.1	12	4	1	-0.4	-2.1	0	i	-31	/
> CC1CCN(C(=O)CN(c2cccc(F)c2)S(C)(=O)=O)CC1
    -0.1	0	11	13	2.2	0.2	0	i	4	-21

Remaining list, next part.
molecule	AF4-AF9 inh	Beta cell apopt	Ecoli rRNA inh	Ecoli rRNA inh OD600	Ecoli rRNA inh RFP	RanGTP-Impb inh	T cruzi inh	FGF22 binding	Calb FLC	ALR H2O2 inh
O=C(NC(=S)NC1CCSC1=O)c1cccs1 (centres undefined)	-3.0	-3	5	2	0.6	-1.7	-3	i	-6	34
CCOC(=O)CN(C(=O)COC(=O)C1=NNC(=O)CC1)c1ccc(F)cc1	-1.5	-3	5	9	-0.8	/	/	i	/	1
NC1=NC2=C(CCCC2)C2(CCCCC2)S1	/	14	/	/	/	3.3	43	/	10	0
Cc1ccc(CNC(=O)c2cc3c(=O)n(C)c4ccccc4c3n2C)o1	3.2	5	-12	-7	-1.0	2.9	21	i	-6	26
CSc1ccccc1OCc1cc(C(=O)N(C)Cc2ccncn2)no1	0.5	7	/	/	/	-1.6	3	i	-1	-4
O=c1cc(CS(=O)(=O)c2ccccc2)nc(-c2ccncc2)[nH]1	0.3	-6	16	9	-2.2	-1.8	-9	i	0	-1
CCN(CC)CCCNC(=O)CSc1nc(-c2cccs2)cc(C(F)(F)F)n1	3.4	-5	2	-24	-2.4	0.5	1	i	-1	-47
CCn1c(SCC(=O)Nc2ccc3c(c2)OCCO3)nnc1-c1cccnc1	-22	/	7	10	-0.9	7.4	-10	i	1	-5
Cc1ccc(C)c(/C=C2\N=C(c3ccccc3F)OC2=O)c1	-1.2	-4	3	-2	0.7	0.7	-17	i	29	1
CC(C)c1cccc(C(C)C)c1NC(=O)COC(=O)C1CCC1	7.7	-3	9	17	-1.0	0.5	-14	i	-3	-1

Continued.
molecule	AF4-AF9 inh	Beta cell apopt	Ecoli rRNA inh	Ecoli rRNA inh OD600	Ecoli rRNA inh RFP	RanGTP-Impb inh	T cruzi inh	FGF22 binding	Calb FLC	ALR H2O2 inh
CNC(=O)CSc1nnnn1CCCOC	/	-2	/	/	/	-4.6	2	/	0	-3
COc1ccccc1CNC(=O)c1cccc(C)c1[N+](=O)[O-]	-1.5	1	-7	-5	11	2.4	-1	i	-11	/
COc1ccc(Br)cc1CN(C)C(C)C(=O)Nc1cccc(C(C)=O)c1 (centres undefined)	0.2	6	-36	-59	-8.4	6.5	7	i	17	4
COC(=O)/C=C1/S/C(=N/N=C/c2ccco2)NC1=O	-6.1	3	0	-9	-1.3	-2.4	-15	i	-9	/
COc1ccc(CCCc2nnc(SCc3nc4ccccc4c(=O)[nH]3)n2C)c(C)c1	-9.1	-9	14	9	5.0	-0.6	-13	i	0	/
Cc1n[nH]c(C)c1N1C(=O)c2cccc3cc(Br)cc(c23)C1=O	/	2	/	/	/	1.3	7	/	0	-7
CCOC(=O)c1nc(C)sc1-c1ccnn1S(=O)(=O)c1cccc(Cl)c1	2.2	2	-29*	-7.6*	-3.5*	-1.3	/	i	1	-1
CCn1c2ccc(F)cc2c2nnc(NN)nc21	/	-3	/	/	/	0.9	24	/	-3	-2
CCCc1nc2c(c(=O)c3ccccc3n2C)c(=O)n1-c1cc(C)cc(C)c1	-2.1	5	-11	2	3.7	2.7	34	i	-4	9
O=C1C=C(O)c2c(O)cc(O)c(O)c2C1=O	4.2	9	/	/	/	?	-36	i	69	98*

Next part.
molecule	AF4-AF9 inh	Beta cell apopt	Ecoli rRNA inh	Ecoli rRNA inh OD600	Ecoli rRNA inh RFP	RanGTP-Impb inh	T cruzi inh	FGF22 binding	Calb FLC	ALR H2O2 inh
COc1ccccc1CCNC(=O)C1CCC(=O)N(Cc2ccccc2OC)C1 (centres undefined)	1.7	38	0	5	2.7	0.2	8	i	-1	-10
COc1ccc(C(=O)CSc2nnc(-c3ccco3)n2CC2CCCO2)cc1 (centres undefined)	/	-4	/	/	/	1.9	-3	/	-8	32
O=C(NC1CCCC1)C1CCCN1C(=O)Oc1ccccc1 (centres undefined)	-0.4	-9	8	11	0.5	-0.6	-4	i	-3	-10
CC12CCC(=O)N1C(C(=O)N1CCN(c3ccc(C(F)(F)F)cc3[N+](=O)[O-])CC1)CS2 (centres undefined)	0.6	-13	7	7	0.6	4.2	-1	i	1	-1
O=C(O)c1ccc(N/N=C/C=C/c2ccccc2)cc1	7.1	-5	-15	-3	-11	85*	-19	i	-10	92*
Cc1cc2oc(=O)cc(Cn3nnc(-c4ccc(Cl)cc4)n3)c2cc1C(C)C	/	-3	/	/	/	-3.5	34	/	2	-6
O=C(Nc1nccs1)c1cccc(N2C(=O)c3cccc4c([N+](=O)[O-])ccc(c34)C2=O)c1	/	2	/	/	/	-5.9	32	/	8	-4
Nc1ccccc1C(=O)NNc1c2ccccc2nc2ccccc12	/	-13	-20*	2.1*	0.8*	33*	30	i	-7	98*
Cn1c(C(=O)c2ccncc2)cc2ccccc21	2.3	-9	-10	-13	1.1	4.2	2	i	/	-35
COCCNC(=O)CN1C(=O)NC2(CCCc3ccccc32)C1=O (centres undefined)	-2.3	-11	9	19	2.5	1.0	-14	i	3	-7

Some entries already given with just Beta cell apopt and ALR H2O2 inh:
| Structure | Beta cell apopt | ALR H2O2 inh |
| --- | --- | --- |
| O=C(NC1CCCC1)C1CCCN1C(=O)Oc1ccccc1 (centres undefined) | -9 | -10 |
| CC12CCC(=O)N1C(C(=O)N1CCN(c3ccc(C(F)(F)F)cc3[N+](=O)[O-])CC1)CS2 (centres undefined) | -13 | -1 |
| O=C(O)c1ccc(N/N=C/C=C/c2ccccc2)cc1 | -5 | 92* |

(next part)
molecule	AF4-AF9 inh	Beta cell apopt	Ecoli rRNA inh	Ecoli rRNA inh OD600	Ecoli rRNA inh RFP	RanGTP-Impb inh	T cruzi inh	FGF22 binding	Calb FLC	ALR H2O2 inh
COc1ccc(C(=O)CN2C(=O)NC3(CCCCC3)C2=O)cc1OC	0.0	-4	0	-1	-0.2	/	-3	/	-2	-7
O=C1Nc2ccccc2S/C1=C/Nc1cccc(Cl)c1	/	13	/	/	/	-2.2	29	/	-9	48
O=C1C2=C(Nc3ccccc3SC2c2ccco2)c2ccccc21 (centres undefined)	/	-8	/	/	/	1.8	27	/	-8	2
COc1ccc(OC)c(NC(=O)CCNC(=O)Cn2ccc3ccccc3c2=O)c1	1.6	2	-4	4	-4.3	0.7	-8	i	-1	1
Cc1cc(C(F)(F)F)nn1CC(=O)NNC(=S)Nc1cccc(Cl)c1	/	2	/	/	/	1.2	-5	/	1	57

This is a subset; count on the stated rates, not on these rows.
